Compound activity from PubChem.
ugtP null kill – compounds lethal to S. aureus RN4220 ugtP deletion mutant; growth inhibition, % (concentration not given with the values); hit rate 0.54% among 330,000; OD600 growth, 16 h; some inactives read as strong as hits;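 active = z-score under -3 and OD600 up to 0.15 on both plates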;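 note: plate controls were untreated wells for no effect and antibiotic for full effect; wells of about 80 µL received 100 nL stock; the first replicate is given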
Mtb hypoxia rep – reduces hypoxia-regulated biosensor signal in M. tuberculosis; M. tuberculosis hypoxia-regulated fluorescent reporter, fluorescence; fluorescence inhibition, % (test concentration not listed); hit rate 0.1% among 300,000; AID 1159583;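 active = 35 to 45% if threefold the growth effect, above 45% if 1.5-fold the growth effect; inactive = the rest, general growth blockers included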;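 note: wells of about 50 µL received 100 nL stock; 0% = vehicle wells and 100% = reference inhibitor wells; whole bacteria with a GFP reporter of the hypoxia response; strong numbers were not always called active; many hits fall short of the cut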
BJeLR lethal – kills HRASV12-expressing BJeLR cells. hit rate 0.17% among 300,000. inhibition, % (no concentration beside the values). AID 1554. BJeLR (HRASV12) viability, CellTiter-Glo ATP luminescence, 48 h; reference of the scale not given here;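 active = replicate mean above 50%; inconclusive = above 50% but judged a plate artefact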;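 note: 50 nL library stock added to about 25 µL; numbers are from one replicate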
RN4220 kill – kills Staphylococcus aureus RN4220. S. aureus RN4220 growth, OD600, 16 h. inhibition, % (concentration not given with the values). hit rate 0.33% among 330,000;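 active = z-score of -3 or lower and OD600 up to 0.18 on both plates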;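 note: plate controls were untreated cells for no effect and reference antibiotic for full effect; stock transfer was 100 nL into about 80 µL; one replicate is shown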
Bead autofluor – counter-screen for toxin protease inhibitors: compound fluorescence; compound autofluorescence counterscreen, microsphere flow cytometry; active compounds read high; fluorescence intensity (concentration not given with the values); hit rate 3.1% among 360,000; AID 624483;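 active = at least 3 SD above the mean of all compounds, about 16000 in these data; inconclusive = too few beads counted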;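 note: 100 nL of 1 mM stock went into each well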
PrP 5UTR inh – suppresses PrP 5' UTR mRNA reporter expression; cell-based PrP 5' UTR mRNA reporter, plate reader; hit rate 0.35% among 340,000; inhibition, % (concentration not given with the values); AID 488862;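 active = every replicate at 50% or more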;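 note: 0 = median of the neutral control wells; tested in H4 reporter cells; numbers are from one replicate; inactives centre near -14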
Mtb hypoxia rep growth – second read-out of Mtb hypoxia rep, no call of its own (marks repeat the call); growth inhibition, %; measured here: M. tuberculosis growth (absorbance);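 0% = vehicle and 100% = reference antibiotic; read after six days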
An asterisk follows results filed as active; ? = inconclusive; nt = no result given. No enrichment for hits. About 4% of those tested had a hit in this group.

nr	molecule	ugtP null kill	Mtb hypoxia rep	Mtb hypoxia rep growth	BJeLR lethal	RN4220 kill	Bead autofluor	PrP 5UTR inh
1	O=C(NCCCN1CCCC1=O)C1CCN(S(=O)(=O)N2CCOCC2)CC1	-8	3	6	-1	-11	3130	-14
2	CCOc1cc(Br)cc(/C=N/NC(=O)c2cccnc2)c1O	nt	nt	nt	3	nt	3349	8
3	CN1CCc2c(sc(NC(=O)c3ccc(S(=O)(=O)N4CCCC4)cc3)c2C(N)=O)C1	4	4	-1	-1	1.3	5992	-15
4	CCOC(=O)CCc1c(C)c(C#N)c2nc3ccccc3n2c1-n1cnc2ccccc21	2	1	5	-1	-2.4	9141	-8
5	O=C(Nc1ccc(F)cc1)C1CCCN(C2=NS(=O)(=O)c3ccccc32)C1 (configuration not stated)	1	4	5	nt	11	6596	-16
6	CN[C@@H](C)C(=O)NC[C@H]1O[C@@H](n2cnc3c(N)ncnc32)[C@H](O)[C@@H]1O	5	-11	5	nt	3.4	3951	-19
7	CNC(=S)NNC(=O)Cn1ccc(C)n1	-2	1	1	-2	-1.4	11007	-12
8	COC(=O)c1c(C(=O)OC)c(-c2ccc(C)cc2)n2c1CS(=O)(=O)C2	6	12	8	1	9.4	2830	-24
9	Cc1ccc2c(c1)N(CC(=O)NCc1cccs1)C(=O)CO2	2	9	4	8	5.5	9907	-30
10	CC(/C=N/NC(=O)Cn1cnc2c1c(=O)n(C)c(=O)n2C)=C\c1ccco1	nt	nt	nt	4	nt	3088	-22
11	C(=N\Nc1ccccn1)/c1cccnc1	nt	nt	nt	4	nt	3751	-12
12	Cc1cc(C)cc(NC(=O)C2CCCC2)c1	-4	-4	-3	-4	-0.6	7976	-3
13	CSc1ccc(C2C(C#N)=C(N)Oc3c2ccc(=O)c2c(C)oc(C)c32)cc1 (configuration not stated)	2	nt	nt	0	8.3	4722	8
14	C=CCNc1nnc(SC2CC(=O)N(c3ccc(OCCC)cc3)C2=O)s1 (configuration not stated)	nt	nt	nt	-1	nt	2488	-3
15	O=C(CCCSc1nc2ccccc2[nH]1)NCc1ccco1	1	3	1	3	1.8	9357	-8
16	Cc1ccc(NC2CCCN(C(=O)c3cc4ncccn4n3)C2)cc1C (configuration not stated)	0	6	0	-5	1.1	6028	-6
17	COC(=O)c1cn(NC(=O)C2CCCO2)c(=O)c2ccccc12 (configuration not stated)	-3	16	14	-1	6.4	4611	-16
18	O=C(Nc1ccccc1Cl)N1CCn2c(nc3ccccc32)C1	7	2	1	1	2.9	4136	1
19	C#CCOCCOCCOCCNc1nc(N2CCOCC2)nc(N2CCN(C(=O)C(CCCCN)n3cc(CCC(=O)O)nn3)CC2)n1 (configuration not stated)	8	13	2	nt	8.2	nt	nt
20	O=C(Nc1ccc(N2CCOCC2)cc1N1CCOCC1)c1ccc(Cl)cc1	3	7	11	12	3.4	5417	-12
21	CC1(C)Cc2c(C#N)c(N3CCN(C(=O)c4ccco4)CC3)nc(-c3ccco3)c2CS1	1	11	11	-2	3.6	2888	-8
22	COc1ccc(C(=O)COC(=O)/C=C/c2ccc(S(=O)(=O)Nc3cccc(S(N)(=O)=O)c3)cc2)cc1	nt	nt	nt	-3	nt	3701	-27
23	CCCCCN1C(C)=CC(=C(C#N)C#N)C=C1C	11	6	7	-8	2.4	4677	-27
24	Cc1ccc(Cl)c(OCC(=O)Nc2cc(S(=O)(=O)N3CCOCC3)ccc2N2CCCC2)c1	-3	1	-3	-28	1.7	6046	-1
25	O=C(COc1ccc(F)cc1)Nc1ccc(-n2cnnn2)cc1	-3	5	0	-1	2.5	20385*	-15
26	CC(C)(C)c1cc(N/C=C\c2nnnn2-c2ccc(Br)cc2)no1	-12	-2	0	2	0.2	4128	-16
27	Cc1ccc2c(c1)-c1c(cnn1CC(=O)N(Cc1ccco1)C1CCCCC1)CO2	-14	-3	-1	-6	-9.2	5868	-25
28	COC(=O)c1ccc(Cn2nnc3c(=O)[nH]c(C4CCN(S(=O)(=O)c5ccc(F)cc5)CC4)nc32)cc1	4	-2	-5	7	1.4	6151	-8
29	COCCN(C(=O)CSc1nnc(-c2ccc(C(C)(C)C)cc2)n1N)c1c(N)n(CC(C)C)c(=O)[nH]c1=O	0	-7	5	4	-0.6	6277	0
30	c1ccc2c(c1)SCc1nnc(-c3ccncc3)n1-2	1	-5	0	1	2.9	5385	-7

2 entries picked at random from those above, as already listed:
nr	molecule	ugtP null kill	Mtb hypoxia rep	Mtb hypoxia rep growth	BJeLR lethal	RN4220 kill	Bead autofluor	PrP 5UTR inh
30	c1ccc2c(c1)SCc1nnc(-c3ccncc3)n1-2	1	-5	0	1	2.9	5385	-7
25	O=C(COc1ccc(F)cc1)Nc1ccc(-n2cnnn2)cc1	-3	5	0	-1	2.5	20385*	-15

(further entries)
nr	molecule	ugtP null kill	Mtb hypoxia rep	Mtb hypoxia rep growth	BJeLR lethal	RN4220 kill	Bead autofluor	PrP 5UTR inh
31	CCC(=O)Nc1ccc(S(=O)(=O)Nc2c(NC)c3ccccc3oc2=O)cc1	5	3	10	15	2.6	5172	-15
32	CCOc1ccc(NC(=O)C2CCCN(S(=O)(=O)c3ccc(-n4cnnn4)cc3)C2)cc1 (configuration not stated)	1	-18	-8	-4	2.1	6356	-17
33	O=C(COC(=O)c1cccc(OC(F)F)c1)NC(=O)NC1CCCCC1	2	2	-2	1	1.1	5912	-8
34	COc1cccc(C2[C@H](C)C3(CCN2C)OCCO3)c1 (some centres not stated)	4	3	-3	-4	-0.4	2087	-4
35	O=C(NCc1ccc2c(c1)OCO2)c1cc([N+](=O)[O-])ccc1N1CCCCC1	-1	5	6	23	5.7	2725	-47
36	CCN(CC)CCNC(=O)Cc1c(C(=O)O)n(C)c2ccccc12	2	nt	nt	-6	-0.4	3892	-7
37	Cc1ccc(S(=O)(=O)N2CCN(C(=O)CSc3ncn[nH]3)CC2)c(C)c1	1	-2	5	-2	-0.6	4305	-16
38	O=C(O)Cc1csc(-c2ccc(F)cc2)n1	4	-1	2	2	5.2	4271	-13
39	Cc1ccc2c(c1)N=C(c1ccc(Cl)cc1)CO2	17	nt	nt	6	12	2571	-81
40	COc1ccc(Cc2[nH]n3c(=O)cc(C(C)C)nc3c2-c2ccccc2)cc1	35	10	-2	7	60	3880	-32
41	Cc1ccc(S(=O)(=O)CCC(=O)Nc2nnc(-c3ccccc3S(C)(=O)=O)o2)cc1	2	12	7	11	3.1	6201	-9
42	Nc1cccc(C(=O)Nc2ccccc2Cl)c1	3	4	9	-5	4.1	?	-30
43	Cc1ccc(S(=O)(=O)NCC(=O)NN=Cc2ccc(Cl)cc2)cc1	-6	11	-1	nt	-2.5	nt	nt
44	CCn1c(C)nc2cc(C(=O)N/N=C(\C)c3ccc(OC)cc3O)ccc21	nt	nt	nt	14	nt	4375	8
45	Cc1nc2sc(C(c3cccc(F)c3)N3CCC(C)CC3)c(O)n2n1 (configuration not stated)	-5	nt	nt	2	3.3	3188	-12
46	Cc1cc(C)n(C(=O)COc2c(C)cccc2C)n1	-5	7	12	1	6.4	4333	-12
47	Cc1ccccc1Cn1cc(NC(=O)CSc2nc3c(c(C(F)(F)F)n2)CCc2ccccc2-3)cn1	4	2	4	-3	-2.0	10085	-56
48	O=C(Nc1ccccc1Cl)c1sccc1-c1ccccc1	75	2	-2	1	0.8	5666	-16
49	O=c1[nH]c(=S)n(-c2ccccc2)c(O)c1/C=N/N1CCCCC1c1cccnc1 (configuration not stated)	nt	nt	nt	5	nt	4650	2
50	Cc1ccc(OCC(=O)N(Cc2cccc(F)c2)C2CCS(=O)(=O)C2)cc1 (configuration not stated)	0	4	2	4	-0.4	5828	-7
51	Cc1nn(C2CCS(=O)(=O)C2)c(C)c1CN(C)C(=O)c1ccc(Cl)cc1 (configuration not stated)	-4	-10	-2	nt	-3.8	4201	14
52	CCOc1ccc(NC(=O)CN2C(=O)CCSc3ccc(S(=O)(=O)N4CCCC4)cc32)cc1	0	8	1	-12	3.0	4992	0
53	CCN(CC)CCN(C(=O)C1CCCCC1)c1nc2cc3c(cc2s1)OCO3	25	2	-1	1	3.4	4539	1
54	C=CCn1c(COc2cccc(C)c2)nnc1SCn1nnc2ccccc2c1=O	2	5	8	13	8.1	11061	-23
55	O=C(CNC(=O)c1ccccc1Br)N/N=C/c1ccc(O)cc1	nt	nt	nt	-10	nt	4631	-11
56	CCOC(=O)C1CCN(C(=O)C(CCSC)NC(=O)COc2ccccc2)CC1 (configuration not stated)	3	8	7	nt	2.7	6588	-13
57	CC(O)CNCCCOc1cccc(Oc2ccccc2)c1 (configuration not stated)	1	15	-3	7	11	4230	-21
58	COc1ccc(NC(=O)CSc2nc3ccccc3c(=O)n2CCCC(=O)NCC2CCCO2)c(OC)c1 (configuration not stated)	6	7	-3	-4	0.3	4154	-7
59	CCC(=O)c1ccc(OCC(=O)OCC(=O)c2cc(C)n(C)c2C)cc1	0	11	5	11	2.6	4406	-4
60	O=C(NCc1nc2ccccc2[nH]1)c1ccc(S(=O)(=O)N2CCOCC2)cc1	8	16	7	-1	1.2	2285	-6
61	CC1(C)C[C@H]2C=C(C=O)[C@]3(C=O)C[C@]3(C)[C@H]2C1	nt	nt	nt	92*	nt	5273	-1
62	O=C(OCC(=O)N1CCN(C(=O)c2ccco2)CC1)c1ccccc1	3	-10	-26	-2	6.5	4128	-29
63	Cc1ccc2cc(C#N)c(NCCNC(=S)NCCCN3CCOCC3)nc2c1	6	16	11	4	3.5	4142	-2
64	CC(C)Cc1nnc(NC(=O)CCC(=O)NC2CCCC2)s1	8	5	1	0	1.2	5272	-4
65	S=c1[nH]nc(-c2cccs2)n1N=Cc1cn(-c2ccccc2)nc1-c1ccccc1	-8	5	2	nt	0.6	nt	nt
66	CC(C)CN1C(=O)C(=O)N(CC(=O)c2ccc3c(c2)OCO3)C1=O	8	3	-2	1	3.2	?	-21
67	CC12CCC(=O)N1C(C(=O)N1CCN(S(=O)(=O)c3ccc(Br)cc3Cl)CC1)CS2 (configuration not stated)	10	-2	1	3	2.9	4870	3
68	COCCNc1ncnc2c1nc1n2CCCC1	12	6	4	-8	4.1	2920	-23
69	N#Cc1cccc(NC(=O)CCc2ccc(S(=O)(=O)N3CCOCC3)cc2)c1	1	6	-7	nt	1.9	4222	-3
70	CC(C)c1nnc(SCC(=O)N2CCN(C(=O)c3ccco3)CC2)n1N	4	-2	0	5	2.2	4269	-12
71	CCCN(CC(=O)Nc1ccccc1C)CC(=O)Nc1ccc(Br)cc1F	-6	-13	7	1	-6.3	3474	-11
72	O=C(Nc1cccc(F)c1)c1cc(-c2ccco2)nc2ccccc12	3	-2	0	-7	5.0	4683	-16
73	CN(Cc1nc(-c2ccncc2)no1)S(=O)(=O)c1ccc(Cl)cc1	-4	5	6	12	-0.2	21129*	-9
74	COc1cccc(CNC(=O)CCS(=O)(=O)c2ccccc2Cl)c1	2	10	6	nt	2.2	?	nt
75	Nc1c(-c2ccc(Cl)cc2)cnn1-c1cccc(C(F)(F)F)c1	-4	9	21	6	12	2829	-65
76	CCC(=O)N1CC(=O)Nc2ccc(Cl)cc2C1c1ccc(F)cc1 (configuration not stated)	5	10	13	4	1.8	3793	-10
77	O=C(O)c1ccc(CNc2ccccc2C(=O)O)cc1	-5	7	7	-7	5.4	4336	3
78	CCCCCOC(=O)C1=C(C)Nc2nnnn2C1c1ccccc1Cl (configuration not stated)	-46	3	2	-13	2.7	8235	-4
79	Cc1ccc(NC(=O)CSC2=C(C#N)C(c3ccco3)C3=C(CCCC3=O)N2)cc1 (configuration not stated)	3	nt	nt	-1	0.5	4728	-33
80	COc1ccc(NC(=O)C(CC(=O)O)Cc2ccc(Br)cc2)cc1 (configuration not stated)	nt	nt	nt	7	nt	3959	-20

Remaining list, next part
nr	molecule	ugtP null kill	Mtb hypoxia rep	Mtb hypoxia rep growth	BJeLR lethal	RN4220 kill	Bead autofluor	PrP 5UTR inh
81	COc1ccc(NC(=O)NNC(=O)c2ccc3ccccc3c2)cc1OC	-1	-5	-5	-4	3.1	nt	-7
82	O=S(=O)(Nc1cccc(F)c1)c1cccc2nsnc12	4	-5	2	5	8.5	3538	-14
83	COC(=O)[C@]1(C)N[C@H](c2ccc(-c3ccc(Cl)c(Cl)c3)c(OC)c2)[C@@H]2C(=O)N(C)C(=O)[C@@H]21	nt	nt	nt	-2	nt	3434	-44
84	CN1CCC(O)(c2ccccc2)C(C(=O)c2ccccc2)C1 (configuration not stated)	7	nt	nt	-1	-2.4	5028	-7
